Screening data from PubChem.
MLL AF4-AF9 inh: blocks AF4 peptide binding to human AF9; P42568; AlphaScreen, biotin-AF4 peptide binding to FLAG-AF9; inhibition, % at 10 µM; 350,000 compounds, 0.47% hits; AID 651704;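 active = every replicate reaching a set inhibition limit, whatever the replicate mean, cut at about 25% in these data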;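 also: 0% = plate neutral control median and 100% = total signal loss; the record names both 10 and 1 µM as test concentration; the first replicate is given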
Target sequence (P42568 whole entry, looked up): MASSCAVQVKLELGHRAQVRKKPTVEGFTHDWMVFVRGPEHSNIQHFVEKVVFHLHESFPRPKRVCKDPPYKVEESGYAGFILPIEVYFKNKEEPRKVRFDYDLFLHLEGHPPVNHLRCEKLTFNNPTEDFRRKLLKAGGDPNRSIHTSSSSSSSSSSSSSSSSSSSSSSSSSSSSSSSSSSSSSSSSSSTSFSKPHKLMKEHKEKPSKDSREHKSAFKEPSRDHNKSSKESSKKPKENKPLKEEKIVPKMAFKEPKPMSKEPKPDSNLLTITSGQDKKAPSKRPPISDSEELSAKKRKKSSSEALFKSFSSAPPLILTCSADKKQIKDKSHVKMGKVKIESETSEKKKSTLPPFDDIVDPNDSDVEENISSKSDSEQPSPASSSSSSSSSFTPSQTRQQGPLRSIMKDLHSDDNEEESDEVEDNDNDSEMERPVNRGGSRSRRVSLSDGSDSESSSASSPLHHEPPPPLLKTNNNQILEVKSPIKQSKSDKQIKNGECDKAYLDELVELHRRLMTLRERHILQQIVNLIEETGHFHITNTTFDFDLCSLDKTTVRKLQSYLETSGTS
Vif TR-FRET: inhibitors of Vif binding to APOBEC3G peptide, primary screen, biochemical, TR-FRET, GST-Vif 1-94, biotin-A3G peptide, dose response retest (AID 1117319); inhibition, %; hits with a dose series show IC50 in µM; TR-FRET GST-Vif / biotin-A3G peptide binding; higher % means a stronger effect; test concentration not given here; strong numbers were not always called active; 260,000 compounds, 0.57% hits;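 active = above the screen mean plus three standard deviations and confirmed in dose response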;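 also: Vif residues 1-94 fused to GST binding biotinylated APOBEC3G peptide 110-148; 0% = full assay without inhibitor and 100% = GST in place of GST-Vif; retest series ran down from 100 µM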
The depositor's hits bear a star; & = joins results of further samples.

SMILES	MLL AF4-AF9 inh	Vif TR-FRET
CN(CCc1ccccc1)C(=O)c1ccc(NC(=O)Cc2cccc(NC(=O)C3CCN(C(=O)C4CC4)CC3)c2)cc1	-4.7	1%
CC(C)CC(NC(=O)OCc1ccccc1)C(=O)NC(Cc1ccccc1)C(=O)CCl (centres undefined)	5.3	-21%
O=[N+]([O-])c1cccc(C=NNc2ccc3ccccc3n2)c1O	1.5	4%
O=S(=O)(CS(=O)(=O)c1ccccc1)c1ccccc1	-19	-2%
O=C(c1ccc(CNc2c(NC3CCCCC3)c(=O)c2=O)cc1)N1CCc2ccccc21	-3.7	6%
Cc1ccc2c(CC(=O)N3CCN(S(=O)(=O)c4ccccc4)CC3)coc2c1	1.1	-1%
Cc1nnc(SCC(=O)NC2CCCCC2)n1-c1ccccc1	-1.7	-1%
COc1ccc(OC)c(CCNC(=O)Cc2ccc(NC(=O)C3=C(C)OCCS3)cc2)c1	-0.8	7%
CC[C@]12c3[nH]c4ccc(OC)cc4c3CCN1C(=O)C(CC(=O)NC/C=C(\C)CCC=C(C)C)C[C@@H]2C(=O)N1CCN(C(=O)C2CC2)CC1 (some centres undefined)	2.0	8%
O=C(NN=Cc1ccc2c(c1)CCC2)c1cccc([N+](=O)[O-])c1	-1.6	1%
Cn1c(=O)c2[nH]c(N=NN3CCCCC3)nc2n(C)c1=O	3.5	-4%
CCOC(=O)C1Oc2ccccc2C(c2cccc3ccccc23)=C1C(=O)OC (centres undefined)	4.4	0%
O=C(O)c1cc(=O)c2c(OCC(O)COc3cccc4oc(C(=O)O)cc(=O)c34)cccc2o1	-3.1	14%
COCCCn1c(SCC(=O)c2c(N)n(C3CC3)c(=O)[nH]c2=O)nnc1-c1ccccc1Cl	0.0	3%
O=C(c1cccc(NS(=O)(=O)c2ccc(Br)cc2)c1)N1CCN(c2ccccc2O)CC1	0.3	5%
Cc1cc(C)c(-c2c(N)cc(Br)cc2Br)c(N)c1	11	2%
Nc1ncnc2c1cnn2C1CC(O)C(CO)O1 (centres undefined)	-0.9	-10%
CN1C(CCl)Nc2cc(Cl)c(S(N)(=O)=O)cc2S1(=O)=O (centres undefined)	0.1	-4%
Cc1cc(Br)ccc1Nc1nc(N)nc(N)c1N=O	7.8	-7%
CC(C)N(C(=O)CSc1nnc(C2CC2)n1C1CC1)c1ccccc1	-1.6	-7%
COc1ccc(NS(=O)(=O)c2cccc(C(=O)N3CCN(C/C=C/c4ccccc4)CC3)c2)cc1	22	-9%
C[C@@H]1CCCCO[C@H](CN(C)Cc2ccc(C(=O)O)cc2)[C@H](C)CN([C@@H](C)CO)C(=O)c2cc(NC(=O)Nc3ccc(C(F)(F)F)cc3)ccc2O1	1.0&0.6	3%
CC1CN(Cc2ccccc2)C(=S)NC1=O (centres undefined)	-5.1	-2%
C[C@@H]1CN([C@@H](C)CO)S(=O)(=O)c2ccc(Br)cc2O[C@@H]1CN(C)Cc1cccnc1	-1.6&-0.3&-3.5	-7%
CCN1C(=O)[C@H]2[C@H]3CN=C(SCc4ccccc4)N3[C@@](C)(C(=O)OC)[C@H]2C1=O	-2.7	-4%

Overlap with the part before: four compounds; new compounds follow.
SMILES	MLL AF4-AF9 inh	Vif TR-FRET
C[C@@H]1CCCCO[C@H](CN(C)Cc2ccc(C(=O)O)cc2)[C@H](C)CN([C@@H](C)CO)C(=O)c2cc(NC(=O)Nc3ccc(C(F)(F)F)cc3)ccc2O1	1.0&0.6	3%
CC1CN(Cc2ccccc2)C(=S)NC1=O (centres undefined)	-5.1	-2%
C[C@@H]1CN([C@@H](C)CO)S(=O)(=O)c2ccc(Br)cc2O[C@@H]1CN(C)Cc1cccnc1	-1.6&-0.3&-3.5	-7%
CCN1C(=O)[C@H]2[C@H]3CN=C(SCc4ccccc4)N3[C@@](C)(C(=O)OC)[C@H]2C1=O	-2.7	-4%
Nc1nccc(N2CCCCC2)n1	0.3	-5%
O=S(=O)(N[C@H](CO)c1ccccc1)c1ccc(Br)cc1F	-2.0	-7%
COc1ccc(/C=C/C(=O)OCC(=O)NC2CCCCCC2)cc1	0.0	-9%
CCCCn1c(N)c(N(CCC(C)C)C(=O)COC(=O)c2ccc3ccccc3c2)c(=O)[nH]c1=O	6.8	-1%
COc1ccccc1-c1cccc([C@@H]2C[C@H]3[C@H](CON3C)CN2C(=O)C(C)(C)C)c1	-0.7	4%
Cn1c(-c2ccccc2)cc(=O)cc1-c1ccccc1	0.7	-7%
CCCSc1ncnc2[nH]ncc12	-1.3	1%
O=C1OC(c2cc(Br)c(O)c(Br)c2)c2ccccc21 (centres undefined)	4.9	-2%
Cc1ccc(S(=O)(=O)NCc2cccc([N+](=O)[O-])c2)cc1	2.2	2%
O=C(OCc1ccccc1)N1CCC2CC1c1cc(-c3ccc(F)cc3)ccc12 (centres undefined)	0.1	1%
N#C/C(=C\c1cccc([N+](=O)[O-])c1)C(=O)NCc1ccc(Cl)cc1	0.3	-12%
CC(C)(C)OC(=O)C[C@H]1C/C=C\C[C@H](CC(=O)N[C@@H](CO)Cc2ccccc2)C(=O)N[C@H](C(C)(C)C)COC1=O	-0.5	-1%
Cc1ccc(S(=O)(=O)N(C)C[C@H]2Oc3cc(Br)ccc3S(=O)(=O)N([C@H](C)CO)C[C@@H]2C)cc1	-2.4&0.0&0.8	2%
c1ccc(CCNc2ccccn2)nc1	-1.9	-3%
O=C1OCCN1C(=O)[C@H]1[C@H](c2ccccc2)C(c2ccccc2)=NN1c1ccc(Br)cc1	-3.8	1%
C=CC1=CCN(S(=O)C(C)(C)C)[C@@H]1CCO (some centres undefined)	-3.1	-5%
COc1ccc(N=Nc2c(N)nn(C)c2N)cc1	3.4	-1%
COc1ccc(OCC(=O)Nc2ccc3c(c2)nc(CCN2CCN(c4ccccn4)CC2)n3C)cc1	2.6	-3%
CSc1ncnc2[nH]ccc12	-1.8	-3%
O=C(NNc1ccccc1)c1ccc(Cl)c(Cl)c1	1.6	6%
COc1ccc(C(=O)C(=NNc2ccccc2)c2ccc(OC)cc2)cc1	0.1	3%
Nc1nc(-c2ccccc2)c(CCCOc2ccc(NC(=O)CBr)cc2)c(=O)[nH]1	-1.6	-4%
CSc1ncnc2c1ncn2CCCNCCCc1ccccc1	-2.4	-2%
C[C@H]1CN([C@@H](C)CO)C(=O)c2cc(C3=CCCC3)cnc2O[C@@H]1CN(C)C(=O)c1ccncc1	0.5&-2.6&-5.6	-8%
COc1ccc(C2OCC(C)([N+](=O)[O-])CO2)cc1 (centres undefined)	-0.6	4%

Reprinted from above (five entries):
SMILES	MLL AF4-AF9 inh	Vif TR-FRET
Nc1nccc(N2CCCCC2)n1	0.3	-5%
O=S(=O)(N[C@H](CO)c1ccccc1)c1ccc(Br)cc1F	-2.0	-7%
COc1ccc(/C=C/C(=O)OCC(=O)NC2CCCCCC2)cc1	0.0	-9%
CCCCn1c(N)c(N(CCC(C)C)C(=O)COC(=O)c2ccc3ccccc3c2)c(=O)[nH]c1=O	6.8	-1%
COc1ccccc1-c1cccc([C@@H]2C[C@H]3[C@H](CON3C)CN2C(=O)C(C)(C)C)c1	-0.7	4%

Next section.
SMILES	MLL AF4-AF9 inh	Vif TR-FRET
CC(C)(C)NC(=O)C[C@H]1C[C@H](C(=O)N2CCCCC2)[C@@]2(CCc3ccccc3)c3[nH]c4cc(-c5ccco5)ccc4c3CCN2C1=O	3.1	6%
O=C(COC(=O)c1ccccc1Cl)NC1CCCCCCC1	-4.0	-1%
Cc1ccccc1NC(=O)CSc1nc2[nH]c(=O)cc(O)c2s1	-2.9	-3%
O=C(CN1C(=O)NC2(CCCCC2)C1=O)Nc1cc(C(F)(F)F)ccc1N1CCCC1	1.8	5%
COc1cccc(-n2cc(CN(C)C(=O)C3CCC(=O)N(C4CC4)C3)cn2)c1 (centres undefined)	1.6	-5%
COC(=O)C1(C(=O)OC)C(C(=O)c2ccccc2)C1c1ccccc1 (centres undefined)	-1.5	-9%
C(=NN1CCCCCC1)c1ccccc1	3.5	0%
O=C(NN=Cc1ccc(Cl)cc1Cl)C1CC1	0.3	-13%
O=C(COC(=O)c1ccc2ccccc2c1O)Nc1ccccc1	-0.5	4%
COc1cc2c(cc1OC)C(Cc1cc(OC)c(OC)cc1[N+](=O)[O-])=NCC2	4.1	-4%
C[C@@H]1CN([C@@H](C)CO)C(=O)CCCn2nncc2CO[C@H]1CN(C)C(=O)Nc1ccnc(N2CCOCC2)c1	-1.2&-1.7	5%
CN(C)CC(O)c1ccc(C=Cc2ccc(Cl)cc2)cc1 (centres undefined)	7.5	-2%
Cc1cc(C([O-])=C(C(=S)Nc2ccc(F)cc2)[n+]2ccccc2)c(C)n1-c1ccc(F)cc1	15	8%
COCCCN1C(=O)C(CC(=O)NCC2CCCCC2)CC(C(=O)N2CCOCC2)=C1C (centres undefined)	-2.5	-2%
Cc1ccc(CN(C)C(=O)c2ccc(S(=O)(=O)N3CCCCCC3)cc2)o1	7.0	-2%
O=C1C2C3C=CC(CC3)C2S(=O)(=O)C2C3C=CC(CC3)C12 (centres undefined)	8.8	-5%
O=C(COC(=O)c1ccc(Cl)nc1)Nc1ccc(Cl)cc1	7.8	-2%
O=[N+]([O-])c1cc2c(cc1Br)-c1ccccc1C2	-5.3	-5%
Cc1snc(SCC(=O)c2ccc([N+](=O)[O-])cc2)c1C#N	0.2	8%
CC(=O)Oc1ccc(-c2csc(Nc3ccccn3)n2)cc1	1.0	1%
Cc1ccc(NC(=O)c2ncn(CCCN(CCCn3cnc(C(=O)Nc4ccc(C)c(C)c4)n3)Cc3ccc4[nH]ccc4c3)n2)cc1C	-1.9	-2%
O=c1cc(C=NNc2ccc([N+](=O)[O-])cc2)[nH]c(=O)[nH]1	3.2	1%
O=C1/C(=C/c2ccccn2)SC(=S)N1Nc1ncc(C(F)(F)F)cc1Cl	12	3%
CC(=NNC(N)=S)c1ccc2cc3c(cc2c1)OCO3	-0.4	-1%
CCCCCN(C(=O)CCC(=O)OCC(=O)NCCc1ccccc1)c1c(N)n(CCCC)c(=O)[nH]c1=O	-2.2	-3%

(more compounds)
SMILES	MLL AF4-AF9 inh	Vif TR-FRET
CSc1ccc(CNC(=O)C2CCC(=O)N(CCc3ccc(Cl)cc3)C2)cc1 (centres undefined)	-0.5	0%
COc1ccc(-n2ncc3c(N4CCCc5ccccc54)ncnc32)cc1	-6.0	4%
Cc1ccc(C)c(S(=O)(=O)NCC(=O)OCC(=O)Nc2sccc2C(N)=O)c1	1.0	3%
O=c1cc(-c2nn[nH]n2)[nH]c(=O)[nH]1	-3.8	-4%
CC1CCc2ccccc2N1CC(=O)Nc1cccc(S(=O)(=O)N2CCCC2)c1 (centres undefined)	3.5	5%
COc1ccc(S(=O)(=O)N(C)C[C@H]2Oc3ccc(NC(=O)c4ccncc4)cc3C(=O)N([C@H](C)CO)C[C@@H]2C)cc1	-3.3&-4.3	3%
CCN(CC)C(=O)C1=C(C)N(CCCOC)C(=O)C(CC(=O)NCc2cccc3ccccc23)C1 (centres undefined)	-1.1	0%
CC1CC(=Cc2ccc(N)cc2)C(=O)O1 (centres undefined)	1.3	-9%
CC1CCC(NC(=O)c2cc3c(s2)CS(=O)(=O)C3)CC1 (centres undefined)	-30	21%
Cc1ccc(C2CC(=O)Oc3cc(C)c(Br)c(C)c32)cc1 (centres undefined)	-2.0	0%
COc1ccc(S(=O)(=O)NCc2cccnc2)c(Cl)c1Cl	-5.1	0%
Cc1onc(-c2ccccc2)c1C(=O)OCC(=O)c1ccc(F)cc1	-2.9	2%
C[C@H](CO)N1C[C@H](C)[C@@H](CN(C)C(=O)CC2CC2)Oc2cc(Br)ccc2S1(=O)=O	-1.8&-3.0&2.7	-3%
COC1=CC(=O)C(OC)=C(OC)C1=O	-0.9	6%
O=C(NN=Cc1ccccc1O)NN=Cc1ccccc1O	-3.5	8%
Cc1cccc(NC(=O)CNC(=O)Cc2ccc3c(c2)OCCO3)c1C	4.6	-2%
Nc1nc(N)c(-c2cccc(C(F)(F)F)c2)c(Cc2cccc(C(F)(F)F)c2)n1	-3.3	-5%
CCN(CC)Cc1c(C)[nH]c2ccc(NC(C)=O)cc2c1=O	0.8	-5%
COc1ccc(-c2ccc3c(c2)C2CC3CCN2C(=O)C2CCCCC2)cc1 (centres undefined)	0.6	-2%
CCc1c(C)c(C#N)c2nc3ccccc3n2c1NCCCN(C)C	-1.0	1%
O=C(O)CN1C(=O)C=CC1=O	-4.2	16%
COCCCNC(=O)Cn1cnc2c(NCc3ccccc3)ncnc21	-4.9	4%
Nc1ncnn1Cc1ccccc1	-1.3	-4%
O=C1[C@H]2[C@@H](c3ccccc3)N[C@]3(CCCN(CC4CCCCC4)C3=O)[C@H]2C(=O)N1Cc1ccccc1	-0.9	3%
Cc1ccc(S(=O)(=O)NC(CC(=O)OCc2ccccc2)C(=O)OCc2ccccc2)cc1 (centres undefined)	1.6	-4%

(list continues)
SMILES	MLL AF4-AF9 inh	Vif TR-FRET
CC(C)CC1C(=O)N(Cc2cn(CCC3OCCCO3)nn2)CCS(=O)(=O)N1Cc1ccc(-c2ccc(Cl)nc2)cc1 (centres undefined)	2.3	-2%
Cc1ccc2c(c1C)-c1c(ccc(C)c1C)C(=O)C2=O	15	-7%
COc1ccc(C2=Cc3ccc(OC(C)=O)cc3OC2)cc1	-0.6	-10%
CCOC(=O)N1CCN(c2ccc(S(=O)(=O)N3CCC(C)CC3)cc2[N+](=O)[O-])CC1	15	-14%
COc1ccccc1N(C)S(=O)(=O)c1ccc(C(=O)N(C)Cc2cccc(OC)c2OC)cc1	-2.9	6%
Cn1c2ccccc2c2ccc3c(c21)C(=O)C=CC3=O	4.0	24µM*
C[C@]12c3[nH]c4cc(-c5ccco5)ccc4c3CCN1C(=O)[C@@H](CC(=O)NCC13CC4CC(CC(C4)C1)C3)C[C@@H]2C(=O)N1CCOCC1	-18	-4%
COc1ccc(CNC2C[C@H]3CCCC(=O)N4CC[C@@H](C2)[C@@H]34)cc1 (some centres undefined)	-38	2%

An excerpt; the hit share may differ from the screen's.
